Mtb bLac sens: beta-lactam sensitization of Mtb H37Rv; M. tuberculosis H37Rv growth with meropenem, percent inhibition; hits of this screen are not shown here; inhibition, % at 25 µM; 330,000 compounds, 0.27% hits; AID 434955;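 active = about 74% or more and at least 40 points above the plate without the antibiotic, then above 30% in a dose series; inconclusive = first-round hits that could not be retested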;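 note: growth measured after seven days incubation then overnight dye step; 0% = bacteria only wells and 100% = bacteria with antibiotic; twin plates without the antibiotic show which effects depend on it; some results filed as inactive read as strong as hits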
An asterisk follows results filed as active; ? = inconclusive.

Preview, three compounds:
SMILES	Mtb bLac sens
COc1cc(NC(=O)CN2CCN(S(=O)(=O)/C=C/c3ccccc3)CC2)cc(OC)c1OC	-1
CC(C)(c1cc(Br)c(O)c(Br)c1)c1cc(Br)c(O)c(Br)c1	-4
CC(=O)c1ccc(NC(=O)C(C)OC(=O)/C=C/c2ccco2)cc1 (stereo not drawn)	-4

The whole of this part, from the first entry:
SMILES	Mtb bLac sens
COc1cc(NC(=O)CN2CCN(S(=O)(=O)/C=C/c3ccccc3)CC2)cc(OC)c1OC	-1
CC(C)(c1cc(Br)c(O)c(Br)c1)c1cc(Br)c(O)c(Br)c1	-4
CC(=O)c1ccc(NC(=O)C(C)OC(=O)/C=C/c2ccco2)cc1 (stereo not drawn)	-4
CCC(NC(=O)CSc1nnnn1C1CC1)c1ccc(Br)cc1 (stereo not drawn)	-8
O=C(NNC(=O)c1ccc(-n2cncn2)c([N+](=O)[O-])c1)c1ccccc1	5
O=NN1CCCCC1	-1
CC(C)(C)OC(=O)C[C@H]1C/C=C\C[C@H](CC(=O)N[C@H](CO)Cc2ccccc2)C(=O)N2CCC[C@@H]2COC1=O	-8
Cc1ccc2c(c1)[C@H]1[C@H](CO2)[C@H](c2ccccc2)[C@]2(C)C(=O)Nc3ccccc3C(=O)N12	9
CC(C(=O)Nc1ccc(F)cc1Cl)N1CCN(S(=O)(=O)c2cccs2)CC1 (stereo not drawn)	0
CN1CCN(CCOCCOc2ccc(Br)cc2Cl)CC1	-5

A different layout for some results above:
smiles | Mtb bLac sens
O=C(NNC(=O)c1ccc(-n2cncn2)c([N+](=O)[O-])c1)c1ccccc1 | 5
O=NN1CCCCC1 | -1
CC(C)(C)OC(=O)C[C@H]1C/C=C\C[C@H](CC(=O)N[C@H](CO)Cc2ccccc2)C(=O)N2CCC[C@@H]2COC1=O | -8
Cc1ccc2c(c1)[C@H]1[C@H](CO2)[C@H](c2ccccc2)[C@]2(C)C(=O)Nc3ccccc3C(=O)N12 | 9

Remaining list, next part.
SMILES	Mtb bLac sens
CC(C)CN1C(=O)C(=O)N(CC(=O)c2ccc3c(c2)CCCC3)C1=O	0
Cc1c(C(=O)Nc2nccs2)oc2ccc(F)cc12	1
COc1cc(CCCN[C@H](CN)Cc2ccccc2)cc(OC)c1OC	-6
O=C1N(c2ccccc2C(F)(F)F)O[C@@]1(c1ccccc1)C1CCCCC1	-4
COC(=O)C1=C(c2ccc3ccccc3c2)C[C@@H]2CC[C@H]1N2C(=O)N1CCOCC1	2
COc1ccc(CC(=O)NNC(=O)COc2ccc(Cl)cc2C)cc1S(=O)(=O)N1CCOCC1	5
CC(O)CO (stereo not drawn)	6
Cc1cc(C)c(S(=O)(=O)N2CCN(C(=O)C(C)Cn3cncn3)CC2)c(C)c1 (stereo not drawn)	-6
O=C(CN1C(=O)C2CC=CCC2C1=O)Nc1ccc(OC(F)(F)F)cc1 (stereo not drawn)	-5
Cc1cc(C)n2nc(SCC(=O)N3CCCC(C)C3)nc2n1 (stereo not drawn)	-8

Pulled one by one from above (7):
SMILES	Mtb bLac sens
O=C1N(c2ccccc2C(F)(F)F)O[C@@]1(c1ccccc1)C1CCCCC1	-4
CC(O)CO (stereo not drawn)	6
Cc1c(C(=O)Nc2nccs2)oc2ccc(F)cc12	1
COC(=O)C1=C(c2ccc3ccccc3c2)C[C@@H]2CC[C@H]1N2C(=O)N1CCOCC1	2
COc1cc(CCCN[C@H](CN)Cc2ccccc2)cc(OC)c1OC	-6
COc1ccc(CC(=O)NNC(=O)COc2ccc(Cl)cc2C)cc1S(=O)(=O)N1CCOCC1	5
Cc1cc(C)c(S(=O)(=O)N2CCN(C(=O)C(C)Cn3cncn3)CC2)c(C)c1 (stereo not drawn)	-6

(continued)
SMILES	Mtb bLac sens
C[C@H](NS(=O)(=O)c1ccc(Cl)cc1)C(=O)OCC(=O)N1CCOCC1	-4
CC(C)Cn1c(N)c(C(=O)COC(=O)C2CCCN2C(=O)c2cccs2)c(=O)n(C)c1=O (stereo not drawn)	-1
Cc1noc(C)c1C(=O)OC(C)C(=O)N1CCc2ccccc21 (stereo not drawn)	3
CCC(=O)N1CCN(c2ccc(NC(=O)COc3ccc(CC)cc3)cc2)CC1	28
CCC1(c2ccc(F)cc2)NC(=O)N(CC(=O)Nc2ccc(C(N)=O)cc2)C1=O (stereo not drawn)	3
CCCN(C1CCS(=O)(=O)C1)S(=O)(=O)c1ccc2ccccc2c1 (stereo not drawn)	-4
COc1ccccc1N1CCN(C(=O)c2cccc(S(=O)(=O)Nc3ccccc3F)c2)CC1	3
CC1(c2cc(F)ccc2F)NC(=O)N(CC(=O)Nc2cccc(S(=O)(=O)N3CCCC3)c2)C1=O (stereo not drawn)	-6
Cc1cc(C)c(OCC(=O)NCCCn2nc(C)cc2C)c(C)c1	-7
COc1ccccc1OCCNC(=O)c1ccccc1OCc1c(C)noc1C	-3
COc1cc(OC)c2ccc(=O)oc2c1	-11
COc1cccc(C(=O)Nc2ccncc2)c1OC	-7
CCN(CC)C(=O)[C@H]1CC(CC(=O)NCc2ccco2)C(=O)N2CCc3c([nH]c4ccccc34)[C@]12C (stereo partly drawn)	-1
C=CCC[C@@H](Cc1ccc(F)cc1)C(=O)OC[C@H](Cc1c[nH]c2ccccc12)NC(=O)[C@H](CC=C)CC(=O)N(CCO)Cc1ccccc1	-2
O=C(COC(=O)CNC(=O)C1CCCCC1)Nc1ccccc1OC(F)F	7
O=C1C[C@H](c2ccc(O)cc2)Oc2cc(O[C@@H]3O[C@H](CO)[C@@H](O)[C@H](O)[C@H]3O)cc(O[C@@H]3O[C@H](CO)[C@@H](O)[C@H](O)[C@H]3O)c21	8
Cc1nc2ccc(C(=O)N/N=C/c3ccccc3O)cc2[nH]1	-4
CCN(CC)c1ccc(C(=O)NNC(=O)C2CSC3(C)CCC(=O)N23)cc1 (stereo not drawn)	-2
COc1cc(C(=O)Nc2cccc(C)n2)ccc1OCC(=O)N1CCOCC1	-4
CC(=O)Nc1ccc(NC(=O)C(C)Sc2nnc(C3CC3)n2-c2ccccc2)cc1 (stereo not drawn)	-8
O=C(O)c1cccc2c1C(=O)c1ccc(-c3ccc(OC(F)(F)F)cc3)cc1S2(=O)=O	4
O=C(CSc1nccc(=O)[nH]1)NC1CCCCCC1	-7
O=C(Nc1ccccc1C(=O)Nc1ccc(Br)cn1)c1cccc([N+](=O)[O-])c1	3
Cc1cccc(NC(=O)CN2CCN(C(=O)C3CCN(C(=O)/C=C/c4ccccc4)CC3)CC2)c1C	2
O=C(COC(=O)C1CCN(c2ccc(C(F)(F)F)cn2)CC1)Nc1ncc(Cl)cc1Cl	2
Cc1ccccc1C#N	12
CC(=O)N1CCN(c2ccc(NC(=O)c3ccc(Cl)cc3)cc2)CC1	-10
COc1ccc(C(=O)NNC(=O)Cc2nc3ccccc3n2C)cc1	7
CS(=O)(=O)Nc1ccccc1C(=O)OCC(=O)NC1CC1	-9
CC1CCCN(CC(O)COc2ccc(S(=O)(=O)N3CCCC3)cc2[N+](=O)[O-])C1 (stereo not drawn)	-4
N=c1n(N)c2ccccc2n1CC(=O)c1ccc(Br)cc1	-5
Cc1cc(C(=O)NCC(=O)OCC(=O)NCC2CCCO2)ccc1[N+](=O)[O-] (stereo not drawn)	-15
COc1cc(CNn2cn[nH]c2=S)ccc1OCC(=O)NC(C)(C)C	-11
CNc1snc(C)c1C(=O)OC(C)C(=O)Nc1ccccc1 (stereo not drawn)	-6
COc1ccc(NC(=O)COC(=O)CCC2CCCC2)c(OC)c1	6
CC(=O)c1c(C)[nH]c(C(=O)N2CCN(S(=O)(=O)c3ccc(C)cc3C)CC2)c1C	-6
CCCCCCCCCCCCCCCC(=O)OC/C=C(C)/C=C/C=C(C)/C=C/C1=C(C)CCCC1(C)C	5
CCCN1CCN(C(=O)Cn2cnc3sc(C)c(S(=O)(=O)N4CCC(C)CC4)c3c2=O)CC1	0
C[C@@]12CCC[C@H](O1)[C@@H]([C@H](O)c1ccccc1)O2	-3
COc1ccc(S(=O)(=O)N(C)C[C@H]2Oc3ccc(NC(=O)Nc4c(C)noc4C)cc3C(=O)N([C@H](C)CO)C[C@@H]2C)cc1	2
CN(C(=O)COC(=O)c1ccc(CN2CCCC2=O)cc1)c1ccccc1	-1
CCC(C)NC(=O)c1ccc(Cl)c(S(=O)(=O)Nc2ccccc2N2CCOCC2)c1 (stereo not drawn)	2
C=CCn1c(SCC(=O)NCC2CCCO2)nc2sc(CC)cc2c1=O (stereo not drawn)	-4
CC(C)C[C@H](NC(=O)N1CC(=O)Nc2ccccc21)C(=O)N[C@H](C(=O)O)c1ccccc1	-3
c1ccc2c(C[C@@H]3CNCCN3CCCCC3CCCCC3)cccc2c1	100
COC(=O)c1ccc(CNC(=O)COC(=O)CCC(=O)c2ccc(F)cc2)cc1	6
C[C@]12CC[C@H](O)CC1=CCC1C2CC[C@@]2(C)C1CC[C@@H]2NC(=O)CCC(=O)O (stereo partly drawn)	-5
Cc1cc(C)n2nc(C(=O)OCC(=O)N(C)CC(=O)Nc3ccc(F)cc3)nc2n1	-4
COc1cccc(NC(=O)CSc2nnc(-c3ccoc3C)n2C)c1	0
CC(C)C[C@H](NC(=O)N1CC(=O)Nc2ccccc21)C(=O)N[C@H](Cc1c[nH]c2ccccc12)C(=O)O	-6

Following part:
SMILES	Mtb bLac sens
O=S(=O)(c1cccc2nonc12)N1CCCCC1	?
COc1ccc(NC(=O)CN(C)C(=O)C2(c3ccccc3)CCCC2)cc1	-6
C[C@H](CO)N1C[C@H](C)[C@H](CN(C)Cc2ccncc2)Oc2ccc(NC(=O)Nc3ccc(C(F)(F)F)cc3)cc2CC1=O	73
Cc1ccc(S(=O)(=O)NCCC(=O)NCc2ccc(Cl)cc2)cc1C	-3
CC(=O)Nc1ccc(S(=O)(=O)N(C)c2ccc(OCCOc3ccccc3F)cc2)cc1	-1
CCn1c(=O)c(C(=O)CN(C)CC(=O)Nc2cccc(F)c2)c(N)n(Cc2ccccc2)c1=O	6
COCc1cc(C)nc(SCc2ccccc2)c1C#N	4
COc1ccc(S(=O)(=O)N2CCN(C(=O)c3cc4c(s3)CCC4)CC2)cc1	-9
O=C(O)c1cc(S(=O)(=O)N2CCN(S(=O)(=O)c3ccc4ccccc4c3)CC2)ccc1Br	3
O=C(COc1ccc(F)cc1Br)NCc1nnc2ccccn12	-12
O=C1Cc2cc(S(=O)(=O)NCc3ccc(F)cc3)ccc2N1	-10
CCN(CCS(=O)(=O)c1ccc(Br)cc1)Cc1nc2ccccc2c(=O)[nH]1	-4
O=[N+]([O-])CCO	-4
Cc1ccccc1S(=O)(=O)N1[C@@H](c2cccc(Cl)c2)C(C(=O)O)=CC[C@H]1c1ccc(Cl)cc1	-1
COCCNC(=O)c1cccc2c1C(=O)c1ccc(N3CCOCC3)cc1S2(=O)=O	5
CCC(NC(=O)c1ccccc1NC(=O)C(C)(C)C)C(=O)N1CC(C)OC(C)C1 (stereo not drawn)	2
Nc1nccnc1C(=O)OCC(=O)NC1CCCc2ccccc21 (stereo not drawn)	-5
CCCc1cc(=O)[nH]c(SCC(=O)Nc2ccc(C)c(S(=O)(=O)N3CCCCC3)c2)n1	-5
CSCCC(NC(=O)c1cc(S(=O)(=O)N2CCOCC2)ccc1F)c1nc2ccccc2[nH]1 (stereo not drawn)	-2
O=C(CN1C(=O)NC2(CCCCC2)C1=O)Nc1ccc(Cl)c(S(=O)(=O)N2CCOCC2)c1	5
C#CCOCCOCCOCCNc1nc(N2CCN(C(=O)CCCCCCCCCCNC(=O)Cn3cc(CCCCCN)nn3)CC2)nc(N2CCN(C(=O)CCCCCCCCCCNC(=O)[C@H](CO)n3cc(CCCSC)nn3)CC2)n1	3
COc1cc(C2NC(=O)NC(C)=C2C(=O)OCC2CCCCC2)ccc1O (stereo not drawn)	-14
Cc1ccc(S(=O)(=O)N2CCC(C(=O)NCC3CC3)CC2)cc1	-5
CCN(C(=O)CSc1ccc2ccccc2n1)C1CCCCC1	7
c1ccc(-c2csc(NC3CCCCC3)n2)cc1	-2
O=C(CSc1n[nH]c(-c2cccnc2)n1)Nc1ccccc1C(F)(F)F	-6
O=C(N[C@H]1C/C=C\C[C@@H](CC(=O)N(CCO)Cc2ccccc2)C(=O)N[C@H](Cc2c[nH]c3ccccc23)COC1=O)OCC1c2ccccc2-c2ccccc21	39
CC(C)[C@H](NC(=O)c1ccc(Cl)cc1Cl)C(=O)NNc1cccc(C(=O)O)c1	-6
CC1CCCC(C)N1C(=O)COC(=O)c1cccc(S(=O)(=O)N(C)c2ccccc2)c1 (stereo not drawn)	-2
Fc1cc(F)cc(-c2c(-c3ccccc3)ncc3ccc(F)cc23)c1	12
CCCn1c(N)c(C(=O)CSc2nnc3ccccn23)c(=O)[nH]c1=O	-1
COc1cc(NC(=O)c2[nH]cnc2C(N)=O)cc(C(=O)Nc2cccc(C(F)(F)F)c2)c1	-6
CC(C)CC(=O)N1CCN(S(=O)(=O)c2ccc(C3CCCCC3)cc2)CC1	2
CC(NC(=O)c1ccccc1)C(=O)NNC(=O)c1ccccc1Cl (stereo not drawn)	2
C#CCOCCOCCOCCNc1nc(N2CCN(C(=O)[C@H]([C@@H](C)CC)n3cc([C@@H](N)CO)nn3)CC2)nc(N2CCN(C(=O)[C@H](CCCCN)n3cc([C@@H](N)CO)nn3)CC2)n1	-7
Cc1ccc(-c2csc3ncnc(N4CCN(C(=O)c5ccco5)CC4)c23)cc1	-2
CSc1ccccc1NC(=O)CN(C)C(=O)c1ccc(NC(=O)c2cccs2)cc1	-6
COc1ccc(Cc2cc(NCc3ccccc3)c3ncn(C(C)C)c3c2)cc1	76
CCOC(=O)C1=CC[C@H]2c3c(c4ccccc4n3C)C(=O)C1N2C	-2
CN(C)C1=NC[C@H](Cc2ccccc2)N1CCCC1CCCCC1	22
NC(=O)c1ccsc1NC(=O)COC(=O)CNC(=O)c1cccc([N+](=O)[O-])c1	2
COc1ccc(OC)c(/C=C/C(=O)OCC(=O)NC2CCCCCCC2)c1	-4
COc1ccc(S(=O)(=O)Nc2cccc3c2O[C@H](CN(C)S(=O)(=O)c2ccc(Cl)cc2)[C@H](C)CN([C@H](C)CO)C3=O)cc1	4
O=C(OCC(=O)c1c[nH]c2ccccc12)c1cccc([N+](=O)[O-])c1	87

Screens: PubChem, Southern Research Specialized Biocontainment Screening Center

Some of the compounds tested. The share of hits here may be higher or lower than overall.
